BJeLR lethal: kills HRASV12-expressing BJeLR cells; inhibition, % (test concentration not listed); BJeLR (HRASV12) viability, CellTiter-Glo ATP luminescence, 48 h; reference of the scale not given here; actives 0.17% (n = 300,000);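 active = replicate mean above 50%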;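 note: 50 nL library stock added to about 25 µL; numbers are from one replicate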
Bead autofluor: compound fluorescence in toxin protease inhibitor counterscreen; actives 3.1% (n = 360,000); fluorescence intensity (no concentration beside the values); compound autofluorescence counterscreen, microsphere flow cytometry; stronger effect = higher value;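 active = at least 3 SD above the mean of all compounds, about 16000 in these data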;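 note: 100 nL of 1 mM stock went into each well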
An asterisk follows results filed as active; . = not tested or not shown. An excerpt. The share of hits here may be higher or lower than overall.

Below each compound – BJeLR lethal | Bead autofluor
> C[C@@H]1CN([C@@H](C)CO)C(=O)CCCn2nncc2CO[C@H]1CN(C)S(=O)(=O)c1ccc2ccccc2c1
  . | 3117
> CC(=O)Nc1cccc(-c2ccnc3c2CC(C)(C(=O)NCc2ccco2)O3)c1 (stereo unspecified)
  . | 3798
> CC(C)[C@@H]1Cc2[nH][nH]c(=O)c2[C@H](C(C)C)O1
  . | 5797
> OC[C@@H]1CN(Cc2ccc(Cl)cc2)C[C@H](n2cnc3c(NCc4ccncc4)ncnc32)O1
  . | 3716
> CCOC(=O)[C@]12CCCC=C1N(Cc1ccc(Cl)cc1Cl)C(=O)[C@H](CC(=O)N1CCCC1)C2
  . | 6138
> CCOC(=O)C1(C)CCCN1C(=O)c1ccc(OC)cc1 (stereo unspecified)
  . | 3614
> COCCNC(=O)C1(C)CCCN(C(=O)c2ccc(-c3ccccc3)cc2)C1 (stereo unspecified)
  . | 4034
> Cc1ccc(CC#N)c(-c2c(CC#N)ccc(C)c2C)c1C
  . | 3853
> CCCCC1CC2=C(C(=O)OC(C)(C)O2)C(c2cccc3ccccc23)O1 (stereo unspecified)
  . | 4353
> CC1(C(=O)NS(=O)(=O)c2ccccc2)CCN1C(=O)c1ccc(C2CCCCC2)cc1 (stereo unspecified)
  . | 2851
> O=C(NCc1ccccc1)c1cccc2c(-c3ccc(F)c(F)c3)coc12
  . | 3307
> CCN(CC)CCN(Cc1cc2cc3c(cc2[nH]c1=O)OCCO3)C(=S)NCCOC
  . | 3020
> CC(=O)N1CCN(Cc2cc(=O)oc3cc(C)cc(C)c23)CC1
  . | 4475
> C(=Cc1cnc2ccccc2n1)c1ccc2c(c1)OCO2
  . | 2675
> COc1ccccc1-c1cnc(C(O)c2ccc(CN3CCCCC3)cc2)[nH]1 (stereo unspecified)
  . | 2851

Random excerpt: four entries already listed
Below each compound – BJeLR lethal | Bead autofluor
> COCCNC(=O)C1(C)CCCN(C(=O)c2ccc(-c3ccccc3)cc2)C1 (stereo unspecified)
  . | 4034
> CC(C)[C@@H]1Cc2[nH][nH]c(=O)c2[C@H](C(C)C)O1
  . | 5797
> Cc1ccc(CC#N)c(-c2c(CC#N)ccc(C)c2C)c1C
  . | 3853
> C(=Cc1cnc2ccccc2n1)c1ccc2c(c1)OCO2
  . | 2675

(continued)
Below each compound – BJeLR lethal | Bead autofluor
> Nc1cc(N)cc(Cc2ccccc2)c1
  . | 5979
> C[C@@H]1CN([C@@H](C)CO)C(=O)CCCn2nncc2CO[C@@H]1CN(C)C(=O)Oc1ccccc1
  . | 3822
> CC1(C(=O)NS(=O)(=O)c2cccs2)CCN1C(=O)CC1CCCCC1 (stereo unspecified)
  . | 2899
> COc1ccc(S(=O)(=O)NC(=O)C2(C)CCN2C(=O)Cc2ccc(-c3ccccc3)cc2)cc1 (stereo unspecified)
  . | 3391
> C[C@@H]1CN([C@@H](C)CO)C(=O)CCCn2nncc2CO[C@H]1CN(C)Cc1ccc2c(c1)OCCO2
  . | 2910
> Cc1c(C(=O)NCc2cccc([N+](=O)[O-])c2)sc(=O)n1Cc1cccc(F)c1
  . | 5132
> O=C(OCc1cn([C@@H]2CN(Cc3cccs3)[C@@H](c3ccc(Cl)cc3)C[C@H]2O)nn1)c1ccccc1
  . | 3864
> O=C(c1ccc2c(c1)OCO2)c1ccc[nH]1
  . | 3772
> CCCC1(CC(C)CC)C(=O)NC(=O)NC1=O (stereo unspecified)
  . | 3470
> CN(CC(=O)Nc1cccc(Cl)c1)S(=O)(=O)/C=C/c1ccccc1
  . | 4062
> Cc1ccccc1OCC(=O)OCC(=O)NC12CC3CC(CC(C3)C1)C2
  . | 2725
> C[C@@H]1CN([C@@H](C)CO)C(=O)CCCn2nncc2CO[C@H]1CN(C)C(=O)c1ccc2ccn(C)c2c1
  . | 3967
> O=S(=O)(c1ccccc1)C1CN1c1c(F)c(F)c(F)c(F)c1F (stereo unspecified)
  . | 4954
> O=C1c2ccccc2C(c2nnnn2Cc2ccccc2)N1CCCn1ccnc1 (stereo unspecified)
  . | 6010
> CCCCCn1nnnc1-c1nc2cc(C)c(C)cc2[nH]c1=O
  . | 5691
> Fc1ccc(NC(=S)N2Cc3ccccc3-n3nncc3C2)cc1
  . | 3690
> Cc1cc(C)n2c(NCc3ccccc3)c(-c3cc4ccccc4o3)nc2n1
  . | 9246
> CC(C)CC1C(=O)N(Cc2cn(Cc3ccco3)nn2)CCS(=O)(=O)N1Cc1ccc(-c2ccc(F)cc2)cc1 (stereo unspecified)
  . | 3789
> Cc1cccc(-c2cnc(C(O)c3ccc(Cl)cc3C)[nH]2)c1 (stereo unspecified)
  . | 3816
> OC(c1ccc(Cl)c(F)c1)c1ncc(-c2cccc3ccccc23)[nH]1 (stereo unspecified)
  . | 2878
> CN1C(C)(C)CC(O)(C(=O)O)CC1(C)C
  . | 4292
> COc1cccc(C(c2nnnn2-c2ccc3c(c2)OCCO3)N2CCC(n3c(=O)[nH]c4ccccc43)CC2)c1OC (stereo unspecified)
  . | 5417
> C=C1C(=O)OC2CC3(C)OC3C3OC3C3=CC(OC3=O)C12 (stereo unspecified)
  . | 5357
> Nc1ncnc2c1ncn2[C@@H]1O[C@H](C(=O)NCC2CCN(Cc3ccccc3)CC2)[C@@H](O)[C@H]1O
  . | 5392
> COc1cc(-c2cnc3c(NC(C)=O)cc(-c4ccc(N5CCN(C)CC5)cc4)cn23)cc(OC)c1OC
  . | 4040
> O=C1c2ccccc2C(=O)N1CCC#C/C=C1\c2ccccc2C(=O)N1c1ccccc1
  . | 3442
> O=C1NC[C@H](CCCCN2C[C@H](Cc3ccc(O)cc3)N(CC3CCCCC3)C(=O)C2=O)N(Cc2ccccc2)C1=O
  . | 5523
> CCOC(=O)N1CCN(C(=O)C[C@@H]2C[C@@]3(C(=O)OC)CCCCC=C3N(Cc3cccc4ccccc34)C2=O)CC1
  . | 4437
> CC(C)(C)OC(=O)N1CCC[C@@H]1C(=O)N1CCC[C@@H]1C(=O)NCc1ccccc1Cl
  . | 5656
> CCOC(=O)c1ccc(-c2ccc(N3C(c4ccsc4)=Cc4ccc(F)cc4C3c3c[nH]c4ccc(C#N)cc34)cc2)cc1F (stereo unspecified)
  . | 5914
> CC1(C(=O)NS(=O)(=O)C2CC2)CCCN(C(=O)c2cccc(C(F)(F)F)c2)C1 (stereo unspecified)
  . | 2904
> O=NN(CC(=O)NN=CC=Cc1ccccc1)CC(=O)NN=CC=Cc1ccccc1
  . | 5928
> CC1=C(C(=O)N2CCOCC2)CC(CC(=O)NCc2cccc3ccccc23)C(=O)N1Cc1ccc(F)cc1 (stereo unspecified)
  . | 2861
> COc1cccc(-c2cnc3c(NC(C)=O)cc(-c4cc(F)ccc4OC)cn23)c1
  . | 2976
> CCCCCC(=O)N1C[C@H](n2cc(COC(=O)c3ccccc3)nn2)[C@@H](O)C[C@@H]1c1ccccc1
  . | 3399
> COc1cc2c(cc1OC)C(c1c(Cl)cccc1Cl)=NCC2
  . | 5539
> Cc1ccc(S(=O)(=O)N2CCC(C(=O)OCC(=O)N3C(C)CCCC3C)CC2)cc1C (stereo unspecified)
  . | 3708
> COc1ccccc1CNC(=O)C1(C)CCN1C(=O)Cc1ccc(-c2ccccc2)cc1 (stereo unspecified)
  . | 3772
> CCc1nc2ccc(C(=O)Nc3cccc(NS(C)(=O)=O)c3)cn2c1N(C)Cc1nccn1C
  . | 2861
> Cc1ccc(NS(=O)(=O)c2cc3c(cc2Br)NC(=O)CO3)cc1C
  . | 2955
> Cc1cccc(S(=O)(=O)NC(=O)C2(C)CCN2C(=O)CCc2ccccc2)c1 (stereo unspecified)
  . | 3943
> CC(=O)NC(c1ccc(F)c(F)c1)c1nc(-c2ccncc2)cs1 (stereo unspecified)
  . | 3908
> Cc1cc(O)ccc1Nc1cc(-c2cccc(N)c2)ncn1
  . | 3807
> O=S1(=O)C[C@@H](N2CCN(c3ccccn3)CC2)[C@H](COCc2ccccc2)N1
  . | 3035
> C[C@@H]1CCCCO[C@@H](CN(C)S(C)(=O)=O)[C@@H](C)CN([C@H](C)CO)C(=O)c2cc(N(C)C)ccc2O1
  . | 3281
> N#Cc1ccc(Nc2nc(NCc3ccccc3)nc3ccsc23)cc1
  . | 3816
> COc1cccc(-c2oc3c(c2C#CC2(N)CCCCC2)C(O)CCC3)c1 (stereo unspecified)
  . | 6099
> CN[C@H](C)C(=O)NC[C@H]1O[C@@H](n2cc(C)c(=O)[nH]c2=O)C[C@@H]1O
  . | 4914
> COc1ccc(-c2cncnc2N)cc1OC
  . | 4245
> C[C@@H]1CCCCO[C@H](CN(C)S(=O)(=O)c2ccccc2)[C@@H](C)CN([C@H](C)CO)C(=O)c2cc(NC(=O)Cc3ccccc3)ccc2O1
  . | 2902
> Cc1c(C(=O)NCCC#N)sc(=O)n1Cc1ccc(F)cc1
  . | 5491
> CCCNC(=O)C1(C)CCCN(Cc2ccc(C(=O)OCC)o2)C1 (stereo unspecified)
  . | 3820
> Cc1cc(Br)cn2c(Cc3cccc(F)c3)c(-c3ccc(F)cc3)nc12
  . | 7109
> CCOc1ccc(-c2nnc(NC(=O)COc3ccccc3F)o2)cc1
  . | 3867
> CS(=O)(=O)N(CC(=O)N1CCCC1)c1cccc(C(F)(F)F)c1
  . | 3523
> COc1ccc(F)cc1-c1cc(NC=O)c2ncc(-c3cccc(C(=O)N(C)C)c3)n2c1
  . | 3219
> O=C(Nc1ccc(Cl)cc1)c1nc[nH]c1C(=O)Nc1ccccc1F
  . | 3471
> OC(c1ccccc1)c1ncc(-c2cccc(F)c2)[nH]1 (stereo unspecified)
  . | 2801
> CC(C)NC(=O)c1ccc(CONC(=O)OCc2ccccc2)cc1
  . | 3523
> O=S1(=O)N[C@H](Cc2ccccc2)COc2cc(N3CC[C@H](O)C3)ccc21
  . | 4192

Remaining list, next part:
Below each compound – BJeLR lethal | Bead autofluor
> CC(C)c1ccccc1NC(=O)Nc1nnc([C@@H]2C[C@H](O)[C@@H](CO)O2)s1
  . | 2643
> O=C(NCCCN1CCCC1=O)C(=O)NCC1OCCCN1S(=O)(=O)c1ccccc1 (stereo unspecified)
  . | 2823
> O[C@H]1CN(Cc2cccs2)[C@@H](c2ccc(Cl)cc2)C[C@@H]1n1cc(C2CC2)nn1
  . | 3580
> CSc1ccc(CN2CCC(C)(Oc3ccccc3F)C2)cc1 (stereo unspecified)
  . | 2998
> O=C1NC[C@@H](CCCCN2C[C@H](Cc3ccc(O)cc3)N(CCC3CCCCC3)C(=O)C2=O)N(Cc2ccccc2)C1=O
  . | 5259
> COc1ccccc1CNc1nc(NCc2cccs2)nc2ccsc12
  . | 2974
> CC(C)NC(=O)N(C)C[C@@H]1Oc2ncc(-c3cccc(C#N)c3)cc2C(=O)N([C@H](C)CO)C[C@@H]1C
  . | 3295
> Cc1ccc(Nc2cc(=O)n(C)c(=O)[nH]2)cc1C
  . | 3815
> O=C(/C=C/[C@H]1O[C@@H](n2ccc(=O)[nH]c2=O)[C@H](O)[C@@H]1O)NC(c1ccccc1)c1ccccc1
  . | 4226
> CCOC(=O)C1(c2ccccc2)CCCNC1=O (stereo unspecified)
  . | 2867
> CC(C)C[C@H]1CN([C@@H](Cc2ccc(O)cc2)CN2CCC[C@@H]2CN2C(=S)NC[C@@H]2Cc2ccccc2)C(=S)N1CCc1ccccc1
  . | 6524
> Cc1nc2ccc(C(=O)N3CCN(c4ccccc4)CC3)cn2c1N(C)C(=O)CCc1ccccc1
  . | 3416
> CC(C)(C)Cc1c(-c2cccc(Cl)c2)nc2ccc(Cl)cn12
  . | 4992
> Fc1cccc(Cc2c(C3CCCCC3)nc3ccc(Cl)cn23)c1
  . | 6575
> COc1ccccc1Cc1c(C(C)(C)C)nc2c3ccccc3ccn12
  . | 6885
> O=C(N/N=C/c1ccc([N+](=O)[O-])o1)c1ccncc1
  4.3 | 4489
> COc1ccc(CNC(=S)N/N=C(/C)c2ccccc2)cc1
  -1.1 | 6445
> COc1cc(/C=C2/SC(=S)N(Cc3ccccc3)C2=O)cc(Cl)c1O
  6.1 | 9513
> Cn1cc(C(=O)N/N=C/c2ccc(Br)c([N+](=O)[O-])c2)c2ccccc21
  -20.1 | 3496
> NS(=O)(=O)c1ccc(NC(=S)NC(=O)c2cccs2)cc1
  -1.2 | 4027
> C/C(=N/NC(=O)CNC(=O)Cc1ccc(Cl)cc1)c1ccco1
  -6.8 | 4804
> C/C(=N\Nc1ccc2nncn2n1)c1ccc(Cl)s1
  -5.9 | 6404
> Cc1ccc(C2CC(c3cccs3)=NN2C(=O)CCl)cc1 (stereo unspecified)
  63.3* | 14263
> O=C(Cn1c2c(c(=O)n3ncnc13)CCC2)N/N=C/c1cccs1
  -3.8 | 4580
> O=C(/C=C/c1ccco1)Nc1cccc(-c2nc3ccccc3[nH]2)c1
  -10.7 | 10577
> S=c1[nH]nc(-c2ccccc2Cl)n1/N=C/C=C/c1ccco1
  -12.1 | 4071
> Cc1c(/C=N/NC(N)=O)c2ccccn2c1C(=O)c1ccncc1
  -6.9 | 3105
> O=C(CCC(=O)Nc1ccc(Cl)cc1Cl)N/N=C/c1ccc([N+](=O)[O-])o1
  -2.1 | 4844
> C/C(=N\n1c(C)nc2ccccc2c1=O)c1ccc(N)cc1
  -2.4 | 3688
> S=c1[nH]nc(-c2cc(-c3ccccc3)n[nH]2)n1/N=C/C=C/c1ccco1
  -7.3 | 3765
> O/N=C/CCn1c(=S)sc2ccccc21
  -6.0 | 11345
> Cc1cc([N+](=O)[O-])nn1CC(=O)NNC(=S)Nc1ccc(F)cc1
  -13.2 | 11344
> CCC(=O)N(C)CCc1cc2c(c(OC)c1/C=N/NS(=O)(=O)c1ccc(C)cc1)OCO2
  13.5 | 3288
> COc1ccc(/C(C)=N/Nc2nc(C)cc(-c3ccccc3)n2)cc1
  -5.2 | 6470
> COc1ccc(/C=N/Nc2nnc(Cc3ccccc3)c(=O)[nH]2)cc1
  -1.7 | 4269
> O=C1NCCCC1C(=O)N/N=C/c1ccc([N+](=O)[O-])cc1 (stereo unspecified)
  -4.6 | 4078
> O=C(Nc1ccc2oc(=O)ccc2c1)c1ccc(-c2cccc([N+](=O)[O-])c2)o1
  7.1 | 5872
> O=C(CN1CCCCCC1)N/N=C/c1cccs1
  3.0 | 9952
